T cruzi repl = inhibitors of intracellular T. cruzi growth, primary screen, luminescence, NIH3T3 host cells; T. cruzi beta-gal in NIH3T3, 90 h; inhibition, % (test concentration not listed); actives 1.4% (n = 300,000);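 active = mean inhibition across valid replicates above about 55%, limit read from the data; inconclusive = mean below that limit but half or more replicates reach it; inactive = mean below it, under half of replicates reach it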;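 also: signal also drops with host cell toxicity which is not excluded here; 0% = plate median of DMSO wells and 100% = zero luminescence signal; higher percent means less beta-gal luminescence so fewer parasites; stock transfer was 50 nL into about 50 µL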
Calb FLC = C. albicans growth inhibition with fluconazole, primary screen, CaCi-2 strain, Alamar Blue fluorescence. C. albicans CaCi-2 (fluconazole-resistant clinical isolate) + fluconazole, 48 h. growth inhibition, % (concentration not given with the values). actives 0.57% (n = 300,000);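 active = most replicates above 75%; inconclusive = exactly half above 75%; inactive = most below 75%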;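 also: all wells also contain fluconazole at 8 µg/ml as a sub-toxic cotreatment; 0% = median of DMSO wells and 100% = median of geldanamycin control wells; wells of about 8 µL received 7.5 nL stock; the first replicate is given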
Bfl-1 A1 inh = caspase 3/7 activation in MEF A1-2A-BIM cells, primary screen, A1 inhibitor project, cell-based, luminescence, HTS; actives 0.066% (n = 330,000); caspase activation, % (concentration not given with the values); Caspase-Glo 3/7 luminescence, 3 h; percent of clofoctol response, vehicle zero;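 active = over half of replicate activation scores above 10%, or exactly half above 10 with the replicate mean above 10; inconclusive = replicate mean below 10 yet half the replicates above 10; inactive = over half of replicates below 10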;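 also: wells of about 30 µL received 50 nL stock; many hits fall short of the cut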
RanGTP-Imp inh = inhibitors of RanGTP-importin-beta interaction, primary screen, biochemical, FRET, CFP-Ran, YFP-importin-beta, homogeneous; Ran GTPase (GTP-bound) - importin-beta complex; cell-free CFP-Ran/YFP-importin-beta FRET ratio; inhibition, % (concentration not given with the values); actives 1.1% (n = 300,000); AID 2216, 2009;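 active = most replicates above 15%; inconclusive = exactly half above 15%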;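 also: 0% = DMSO wells and 100% = Ran loaded with GDP instead of GTP; wells of about 40 µL received 100 nL stock; the first replicate is given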
MLL AF4-AF9 inh = inhibitors of AF4 peptide binding to AF9, primary screen, biochemical, AlphaScreen, biotin-AF4 peptide, FLAG-AF9, single point. inhibition, % at 10 µM. actives 0.47% (n = 350,000). AID 651704, 2012;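 active = every replicate reaching a set inhibition limit, whatever the replicate mean, cut at about 25% in these data; inconclusive = mean inhibition reaches that limit but some replicates miss it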;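 also: 0% = plate neutral control median and 100% = total signal loss; the record names both 10 and 1 µM as test concentration; the first replicate is given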
Beta cell apopt = inhibitors of cytokine-induced beta cell apoptosis, primary screen, luminescence. INS-1E cytokine-induced death, ATP luminescence, 48 h; percent of positive-control rescue, neutral wells zero. protection from apoptosis, % (test concentration not listed). actives 0.8% (n = 300,000);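 active = all replicates at 75% or more, or half of them and the mean; inconclusive = half reach 75% but not the mean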;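 also: 0% = cytokine-treated negative control wells and 100% = positive control rescue; higher means more ATP so stronger rescue from cytokine killing; wells of about 40 µL received 100 nL stock; the first replicate is given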
Vif A3G = inhibitors of Vif binding to APOBEC3G peptide, primary screen, biochemical, TR-FRET, GST-Vif 1-94, biotin-A3G peptide, dose response retest (AID 1117319); TR-FRET GST-Vif / biotin-A3G peptide binding; higher % means a stronger effect; test concentration not given here; strong numbers were not always called active; one-dose inhibition, %; IC50 in µM for titrated hits; Virion infectivity factor (Human immunodeficiency virus type 1 group M subtype B (isolate …; actives 0.57% (n = 260,000);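 active = above the screen mean plus three standard deviations and confirmed in dose response; inconclusive = results disagree or hit not tested in dose response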;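 also: Vif residues 1-94 fused to GST binding biotinylated APOBEC3G peptide 110-148; 0% = full assay without inhibitor and 100% = GST in place of GST-Vif; retest series ran down from 100 µM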
LANA-H2B inh = blockers of LANA interaction with H2A/H2B – biochemical, FP readout, HTS, primary screen; AID 2629, 2010; inhibition, % (no concentration beside the values); actives 0.6% (n = 320,000); cell-free LANA-H2A/H2B peptide, fluorescence polarization; in the data active = inhibition mostly above about 10%, no sharp cut-off; inactive = mostly below about 6.7%;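 also: stock transfer was 7.5 nL into about 10 µL; 0% = median of vehicle wells and 100% = median of positive control wells; one replicate is shown; the record names a cut of 25% in any replicate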
Target sequence (Q9QR71 whole entry, looked up): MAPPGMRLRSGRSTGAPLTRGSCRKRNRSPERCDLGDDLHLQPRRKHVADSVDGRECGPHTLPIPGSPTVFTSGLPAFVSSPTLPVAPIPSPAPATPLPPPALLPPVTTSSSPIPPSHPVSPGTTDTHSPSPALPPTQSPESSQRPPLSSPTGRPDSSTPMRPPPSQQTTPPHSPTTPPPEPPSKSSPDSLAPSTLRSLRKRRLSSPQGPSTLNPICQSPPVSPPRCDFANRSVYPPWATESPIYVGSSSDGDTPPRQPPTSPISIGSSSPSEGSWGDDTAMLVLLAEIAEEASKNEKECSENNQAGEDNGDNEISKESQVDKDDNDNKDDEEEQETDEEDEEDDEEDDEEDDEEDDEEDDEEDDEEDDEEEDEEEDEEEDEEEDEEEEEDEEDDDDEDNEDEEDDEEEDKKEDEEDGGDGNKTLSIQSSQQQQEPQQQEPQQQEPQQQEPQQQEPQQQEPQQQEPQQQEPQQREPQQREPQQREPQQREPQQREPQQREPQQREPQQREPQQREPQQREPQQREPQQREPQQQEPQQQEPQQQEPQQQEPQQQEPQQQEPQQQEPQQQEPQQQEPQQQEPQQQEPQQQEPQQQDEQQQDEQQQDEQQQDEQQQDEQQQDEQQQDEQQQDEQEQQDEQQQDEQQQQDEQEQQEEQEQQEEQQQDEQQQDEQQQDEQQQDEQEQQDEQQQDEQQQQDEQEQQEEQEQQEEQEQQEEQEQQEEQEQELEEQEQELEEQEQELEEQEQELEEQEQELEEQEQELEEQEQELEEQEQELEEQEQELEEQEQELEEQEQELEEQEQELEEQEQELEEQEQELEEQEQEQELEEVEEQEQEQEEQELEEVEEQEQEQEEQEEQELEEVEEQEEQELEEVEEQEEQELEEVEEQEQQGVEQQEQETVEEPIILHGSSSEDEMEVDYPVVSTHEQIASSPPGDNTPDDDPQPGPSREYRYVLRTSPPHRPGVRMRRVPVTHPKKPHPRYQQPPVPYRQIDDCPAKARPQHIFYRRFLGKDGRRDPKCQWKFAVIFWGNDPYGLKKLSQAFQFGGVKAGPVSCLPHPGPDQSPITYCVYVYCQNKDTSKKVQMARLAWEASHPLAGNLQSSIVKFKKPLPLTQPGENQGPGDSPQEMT
* hit, by the source's call; ? = inconclusive; nt = not tested or not shown; & = joins results of further samples.

SMILES	T cruzi repl	Calb FLC	Bfl-1 A1 inh	RanGTP-Imp inh	MLL AF4-AF9 inh	Beta cell apopt	Vif A3G	LANA-H2B inh
COc1ccc(CNC(=O)CN2C(=O)C3C4C=CC(C4)C3C2=O)cc1 (stereo not drawn)	-8	-30	0.4	-3.0	-5.1	-4	4%	-11
O=C(C1=C[C@@H](c2ccc(Br)cc2)C[C@@H](OCCCCO)O1)N1CCOCC1	10	-8	-0.8	1.9	3.8&0.5	-2	-1%	0.5
CC(CN1CCCCC1)OC(=O)c1ccccc1Cl (stereo not drawn)	-13	-6	1.6	0.7	nt	-1	2%	2.6
FC(F)(F)c1cccc(CNC2CCN(Cc3ccccc3)CC2)c1	20	7	-0.3	2.6	-1.5	-1	nt	0.8
CC1CCN(CCNC(=O)C2CCCN(c3ncnc4c3nc3n4CCCCC3)C2)CC1 (stereo not drawn)	4	5	-0.6	?	-2.2	-5	nt	-0.8
COc1cccc(C2NC(CC(C)C)(C(=O)O)C3C(=O)N(Cc4ccccc4)C(=O)C23)c1O (stereo not drawn)	-5	4	-0.1	?	nt	-6	2%	-5.5
O=C(c1cc(COc2ccc(F)cc2Cl)on1)N1CCN(C2CCCCC2)C(=O)C1	5	-24	0.5	1.1	-0.9	6	nt	1.5
CCN(CC(=O)NCc1ccc(Cl)cc1)C(=O)c1cc2ccccc2o1	0	-8	-0.1	-1.5	-0.2	1	-3%	2.1
Nc1nc(Cl)cc(Oc2ccc([N+](=O)[O-])cc2)n1	-4	1	-2.1	0.0	0.0	0	3%	-5.1
Cc1ccc(-c2ocnc2C(=O)Nc2nc(C)cs2)cc1	-15	4	-0.5	3.0	0.4	-1	nt	1.0
COc1ccc(C2C(C(=O)NCC3CCCO3)CCC(=O)N2c2ccc3c(c2)OCO3)cc1 (stereo not drawn)	-8	-10	1.0	-3.6	nt	-3	-2%	1.0
CCOc1ccc(Cl)cc1S(=O)(=O)N1CCC(C(=O)NCC2CCCO2)CC1 (stereo not drawn)	-9	0	0.4	0.6	-16	1	nt	0.9
OC(CN1CCOCC1)Cn1c2ccccc2c2ccccc21 (stereo not drawn)	6	-3	0.2	3.6	1.8	nt	-6%	-3.0
O=C(CCNC(=O)c1ccc(Br)cc1)Nc1ccc(S(=O)(=O)Nc2ncccn2)cc1	-7	-9	0.8	-0.1	-1.0	-4	-1%	-0.4
O=C(Cn1cnc2c(nnn2Cc2ccc(F)cc2)c1=O)Nc1ccc2c(c1)OCCO2	-18	-12	2.3	3.5	-0.8	-8	nt	-0.3
CN1CCc2c(sc3c2C(=O)NC(c2cccc(OC(=O)c4cccs4)c2)N3)C1 (stereo not drawn)	3	-4	-0.1	140*	-5.0	-8	7%	-3.2
COC(=O)CSC1=C(C#N)C(=O)NC(c2ccccc2)S1 (stereo not drawn)	-5	-1	-0.6	1.7	nt	-13	-5%	-0.9
COc1cc(C2c3c([nH]c(=O)[nH]c3=O)Nc3ccc4ccccc4c32)cc(OC)c1OC (stereo not drawn)	-21	-4	-0.1	1.3	-2.4	-9	2%	-0.9
O=C(NC(=S)Nc1cccc(-c2ccc(CO)o2)c1)c1cccs1	-9	3	0.5	6.3	-1.8	-1	27%	0.8
Cc1ccc(NC(=O)c2ccc(S(=O)(=O)NCc3cccnc3)cc2)cc1C	1	8	0.2	-3.8	3.2	1	nt	4.0
CC1(C)Cc2cccc(OCC(=O)Nc3ccccc3F)c2O1	3	1	0.4	-2.5	-26	-5	nt	1.0
Cc1cccc(Nc2nc(CC(=O)O)cs2)c1	0	-7	-4.0	1.4	-8.6	nt	nt	0.1
O=C(Nc1ccc(Cl)cc1)C1CCCN(C2=NS(=O)(=O)c3ccccc32)C1 (stereo not drawn)	nt	nt	0.3	nt	-4.7	-3	-1%	-4.3
CCS(=O)(=O)c1ccc(O)c(N2C(=O)C3C4C=CC(C4)C3C2=O)c1 (stereo not drawn)	7	8	1.4	1.2	nt	nt	5%	-3.0
O=C1CCC(=O)N1c1cccc(-c2nc3ccccc3o2)c1	-10	-2	-0.4	0.2	-0.5	-10	16%	1.4
O=C(c1c(Cl)nc2sccn12)N1CCCc2ccccc21	2	13	0.2	3.6	nt	-7	16%	2.8
O=C(CC1OC(=O)c2ccccc21)Nc1cccc(S(=O)(=O)N2CCCCCC2)c1 (stereo not drawn)	13	6	0.2	7.0	-0.1	5	-7%	2.3
Cc1cc(S(=O)(=O)N2CCOCC2)c(C)s1	6	-4	0.8	2.4	-4.8	-4	nt	-2.6
CC(C)NC(=O)c1ccc(CN2CCc3ccccc3C2)cc1	2	1	0.8	-4.0	-1.6	-2	nt	5.3
O=C(Cc1csc(NC(=O)Nc2cccc(Cl)c2)n1)NCc1cccnc1	-3	0	0.7	?	-2.6	2	1%	1.3
COC(=O)c1ccc(NC(=O)c2ccc3c(c2)OCO3)cc1	-9	-16	-12	-1.8	nt	-7	-6%	-0.6
Cc1ccc(C2=NN(C(=S)Nc3ccccc3)C(c3ccco3)C2)cc1 (stereo not drawn)	46	-6	-0.4	-2.9	nt	0	3%	0.5
Cc1ccccc1CNS(=O)(=O)c1c(C(=O)N2CCCC2)c(C)n(C)c1C	0	-7	1.8	-5.4	-0.6	6	nt	-2.7
COc1ccc(C(=O)c2coc3ccc(O)c(CN4CCOCC4)c23)cc1	13	3	0.4	0.0	0.3	-6	10%	0.1
CC(=O)c1cccc(NC(=O)NCCc2c[nH]c3ccccc23)c1	4	-1	-0.5	2.9	-3.4	-1	9%	1.6
COc1cc(/C=C(\C#N)C(=O)NCC2CCCO2)ccc1OCC(=O)O (stereo not drawn)	-16	4	1.2	-1.4	0.9	11	?	1.0
O=C(c1cc(COc2cccc(C(F)(F)F)c2)on1)N1CCC(Oc2cccnc2)CC1	29	0	-1.3	0.5	-0.3	26	nt	5.3
Cc1ccc(NC(=O)C2(c3ccccc3)CC2(Cl)Cl)cc1C (stereo not drawn)	12	-1	-0.7	-4.7	nt	2	-5%	2.5
CC(C)(C)c1cc(CN(CCO)CCO)c(O)c(C(C)(C)C)c1	16	3	-0.2	-1.1	-1.7	-10	7%	1.9
O=c1c2cnn(-c3ccccc3)c2nc(-c2cccs2)n1-c1ccc(Cl)cc1	35	?	0.6	-0.3	nt	2	-2%	4.8
COc1ccc(C(=O)CCc2ccccc2)c(O)c1	1	6	-1.4	-3.5	-1.5	nt	nt	-1.0
Cc1nc(SCC(=O)N2CCOCC2)c2ccsc2n1	6	-6	-2.7	-3.2	nt	-12	1%	2.5
COc1cccc(C2=Nn3c(nnc3-c3ccccc3O)SC2)c1	13	6	-0.8	-5.3	nt	10	14%	-3.1
COc1ccc(CN2CCNC(=O)C2CC(=O)N(C)Cc2nccn2C)cc1OC (stereo not drawn)	-3	-27	0.2	12	0.2	0	nt	-0.5
Fc1cccc(NCCc2c[nH]c3ccccc23)n1	-5	-17	-0.9	2.9	7.6	2	-13%	-2.2
NC(=NC1CCCCC1)c1ccc(Cl)cc1	10	-2	0.0	0.1	-1.0	nt	2%	-0.5
C=CC1=C2C=C(C3CC3)N(CCCN(CC)CC)C=C2C(=O)C(C)(OC(=O)c2ccco2)C1=O (stereo not drawn)	-16	17	-0.1	-2.2	-6.5	-7	nt	-4.9
COC(=O)Cn1c(=NC(=O)c2ccc(Cl)s2)sc2cc(C)ccc21	13	-17	-0.2	7.4	nt	-1	nt	1.7
COc1ccc(NC(=O)CC2SC(N3CCCCC3)=NC2=O)cc1OC (stereo not drawn)	nt	nt	0.1	nt	-0.1	-4	-10%	0.1
CCN(CC)CCn1c(N)nc2ccccc21	30	-2	0.2	-0.9	-0.7	-1	6%	1.1
COc1ccccc1Cn1nnc2c(=O)[nH]c(C3CCN(C(=O)c4ccccc4Cl)CC3)nc21	1	-1	-0.1	5.2	nt	-3	-3%	3.4
COc1ccc(CC(=O)O/N=C(\N)c2ccccn2)cc1OC	3	8	0.9	8.3	-0.2	-9	-2%	-11
COC(=O)c1ccccc1NC(=O)NCc1c(C)nn(C)c1C	nt	-16	0.3	nt	-0.8	-5	-8%	-0.4
CCOC(=O)c1cc(NC(=O)Nc2ccc(Br)cc2)c(C)nc1C	-10	nt	-0.1	nt	-8.0	-1	-6%	9.5
CC(=O)c1ccc(NC(=S)N(CCCN(C)C)Cc2ccccc2)cc1	-5	-4	-2.1	?	-0.9	-4	nt	6.8
CCCC(=O)Nc1nnc(-c2ccc(Cl)s2)o1	-8	-5	0.0	2.2	-11	nt	-1%	-2.5
Cc1ccc(Cl)cc1NC(=O)COC(=O)c1ccccc1O	-11	1	1.3	0.8	5.9	-3	-9%	0.9
C=CCOc1ccc2nnc(C)n2n1	-10	-11	?	7.1	-1.4	-2	-1%	-2.8
O=c1c2ccccc2ncn1CCCSc1ccccc1	3	29	0.5	1.4	nt	3	-6%	3.1
CCOC(=O)c1cc(-c2ccccc2)n(CC(=O)Nc2ccc(OC)cc2)c1C	4	1	-0.1	-0.8	nt	-2	-4%	1.3
(next part)
SMILES	T cruzi repl	Calb FLC	Bfl-1 A1 inh	RanGTP-Imp inh	MLL AF4-AF9 inh	Beta cell apopt	Vif A3G	LANA-H2B inh
COc1ccc(C(=O)Oc2cc(/C=N/NS(=O)(=O)c3ccc(C)cc3)ccc2OC)cc1	2	-4	-0.2	-0.5	nt	-5	0%	-5.0
CC(C(=O)NC1CCCCC1)N1C(=O)c2cccc3cccc1c23 (stereo not drawn)	7	-48	0.6	0.2	0.3	4	nt	-5.8
COc1ccccc1CNC(=O)C(C)NS(=O)(=O)c1ccc(C)cc1 (stereo not drawn)	7	4	-0.5	0.8	nt	-1	-4%	-0.8
COc1ccc(-c2c3c(nc4sc(C(=O)Nc5cc(C)on5)c(N)c24)CCC3)cc1	5	?	-0.2	7.5	nt	-2	-4%	-2.6
CN1CCN(C(=O)c2cc3nc(-c4ccc(F)cc4)cc(C(F)(F)F)n3n2)CC1	3	?	0.3	-0.9	nt	-1	4%	-0.1
CCC(C)c1ccccc1NC(=O)c1[nH]c(C)c(C(C)=O)c1C (stereo not drawn)	0	2	0.7	3.0	1.5	6	nt	-2.4
COc1ccc(-c2sc3cc(OC)c(OC)cc3c2C#CC(C)(C)O)cc1	nt	nt	0.0	nt	-0.6	3	nt	-1.0
CC1CCc2c(C(=O)Nc3ccccn3)csc2C1 (stereo not drawn)	-8	-9	-2.3	-2.3	3.1	7	-14%	1.8
COCCCn1c(SCC(=O)Nc2nnc(C)s2)nnc1-c1ccoc1C	-6	-4	-0.5	5.1	nt	-4	-5%	-1.1
CC(=O)Nc1ccc(SCC(=O)O)cc1	-21	-5	0.2	1.3	-3.2	3	20%	1.0

Screening data: PubChem BioAssay, several laboratories

Rows are unselected. About 4.3% of those tested had a hit in this group.
